# Screening data deposited in PubChem BioAssay by Broad Institute.
# rRNA inh HTS: selective bacterial rRNA inhibition in E. coli. GFP signal change (wild-type ribosome), % (concentration not given with the values). E. coli WT GFP vs humanized-ribosome RFP mutants, fluorescence, 24 h; active compounds read low; DMSO median 0, no signal -100. actives 1.6% (n = 350,000);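 active = significant combined selectivity score with lowered wild-type GFP, culture density cut under 30%, mutant RFP and density less affected; inactive = any of these conditions unmet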; note: one replicate is shown; some compounds called inactive have numbers as strong as hits
# rRNA inh HTS OD600: also measured in rRNA inh HTS; calls as there; OD600 change, %; measured here: OD600 growth;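 optical density of the mix in the first replicate; 0 = DMSO median and -100 = no signal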
# rRNA inh HTS RFP: second read-out of rRNA inh HTS, no call of its own (marks repeat the call); RFP signal change, %; measured here: RFP humanized mutant strains;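 first replicate; 0 = DMSO median and -100 = no signal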
# The depositor's hits bear a star. The list is partial; count on the stated rates, not on these rows.
SMILES,rRNA inh HTS,rRNA inh HTS OD600,rRNA inh HTS RFP
CCC(=O)Nc1ccc2c(c1)C(=O)N(C)C[C@@H](OC)[C@@H](C)CN(CCc1ccccc1)[C@H](C)CO2,1.2,3.5,-1.3
Cc1noc(C)c1S(=O)(=O)Nc1ccc2c(c1)C(=O)N([C@@H](C)CO)C[C@H](C)[C@H](CN(C)Cc1ccc(Cl)c(Cl)c1)OCCCC[C@@H](C)O2,0.7,-0.4,2.7
C[C@H]1CN([C@@H](C)CO)C(=O)c2cc(C3=CCCC3)cnc2O[C@@H]1CN(C)Cc1ccccc1F,-5.6,-8.9,-1.4
O=C(C[C@@H]1CC[C@@H]2[C@H](COC[C@H](O)CN2C(=O)c2ccncc2)O1)NCc1ccc(-c2ccccc2)cc1,3.8,11.8,-2.0
O=C(C[C@@H]1C[C@@H]2c3cc(NC(=O)Nc4ccc(F)cc4)ccc3O[C@@H]2[C@H](CO)O1)NC1CCCC1,-1.1,4.4,1.0
C[C@@H]1CN([C@@H](C)CO)C(=O)c2cc(NC(=O)Cn3cnnn3)ccc2O[C@H]1CN(C)Cc1ccc(Oc2ccccc2)cc1,-1.2,-9.3,3.3
O=C(C[C@@H]1CC[C@H]2[C@@H](COC[C@H](O)CN2C(=O)Nc2cc(Cl)cc(Cl)c2)O1)NCC1CC1,-24.4,-22.5,-2.2
CCOC(=O)C1(C)CCN1C(=O)c1c(F)cccc1F (stereo unspecified),1.8,10.6,-2.0
Cc1noc(C)c1S(=O)(=O)Nc1ccc2c(c1)C(=O)N([C@H](C)CO)C[C@@H](C)[C@@H](CN(C)C(=O)c1ccncc1)OCCCC[C@@H](C)O2,-0.6,0.3,-4.0
COc1ccc(CN(C)C[C@H]2Oc3ccc(NC(=O)Nc4ccccc4)cc3C(=O)N([C@H](C)CO)C[C@@H]2C)cc1,1.3,0.0,-1.9
COCCNC(=O)C[C@@H]1C[C@@H]2c3cc(NC(=O)c4cccnc4)ccc3O[C@@H]2[C@@H](CO)O1,4.3,14.4,-2.6
CCCNC(=O)N1CCC2(CC1)CN(C(=O)NC(C)C)[C@H](CO)c1c2c2ccc(OC)cc2n1C,-1.9,-8.8,-3.0
O=C(NCCOc1ccc(F)cc1)C1CCC(=O)N(Cc2ccc(Cl)cc2)C1 (stereo unspecified),-6.3,-35.5,-4.7
C[C@@H]1CN([C@@H](C)CO)C(=O)c2cc(N(C)C)ccc2O[C@@H]1CN(C)Cc1ccc(Oc2ccccc2)cc1,4.6,-41.2,8.4
CN1c2ccc(-c3cccc(C#N)c3)cc2[C@H]2[C@H](CCN2S(=O)(=O)c2ccccc2F)[C@@H]1CO,0.2,-6.7,-2.5
O=C(Cc1c[nH]c2ccccc12)Nc1ccc(Nc2cccnc2)c(-c2ccc(-c3ccccc3)cc2F)c1,3.9,10.2,0.1
CCOc1ccccc1NC(=O)CCNC(=O)N1CC(=O)Nc2ccccc21,-1.1,6.4,-3.0
O=C(c1cccnc1)N1C[C@@H]2[C@H](c3ccccc31)[C@@H](CO)N2C(=O)C1CC1,2.8,11.2,2.2
Cc1noc(C)c1NC(=O)N(C)C[C@H]1Oc2ccc(NC(=O)Nc3ccc(F)cc3)cc2CC(=O)N([C@@H](C)CO)C[C@H]1C,5.6,1.1,0.3
C[C@@H]1CN([C@H](C)CO)C(=O)Cc2cc(NC(=O)Nc3ccc(F)cc3)ccc2O[C@@H]1CN(C)Cc1ccc(-c2ccccc2)cc1,1.5,2.9,1.1
O=C(N[C@H]1C=C[C@H](CC(=O)N2CCOCC2)O[C@H]1CO)c1cccc(F)c1,-0.3,2.4,-0.3
COc1ccccc1NC(=O)N1C[C@@H]2N[C@H](C1)C2c1ccc(-c2cccc(C(=O)N(C)C)c2)cc1 (stereo partly specified),0.3,13.8,1.6
CCCCOCCCNC(=O)C[C@@H]1C[C@@]2(C(=O)OC)CC(C)(C)CC=C2N(Cc2ccco2)C1=O,-21.7,-40.7,3.2
CN1C(=O)c2cc(NC(=O)C3CCCCC3)ccc2OC[C@@H]2O[C@H](CC(=O)NCC3CCCCC3)CC[C@@H]21,0.0,-2.3,0.7
COc1ccc(NC(=O)Nc2ccc3c(c2)C(=O)N([C@@H](C)CO)C[C@H](C)[C@@H](CN(C)Cc2ccc(-c4ccccc4)cc2)O3)cc1,-5.4,-1.7,5.5
C[C@@H]1CCCCO[C@@H](CN(C)C(=O)Nc2ccc3c(c2)OCO3)[C@H](C)CN([C@H](C)CO)C(=O)c2cc(NC(=O)Nc3ccc4c(c3)OCO4)ccc2O1,0.4,0.7,-2.5
O=C(N[C@H]1C=C[C@H](CC(=O)N2CCCCC2)O[C@@H]1CO)c1ccc2c(c1)OCO2,0.1,-2.2,-2.0
Cc1ccc(S(=O)(=O)N(C)C[C@@H]2Oc3c(NS(=O)(=O)c4ccccc4)cccc3C(=O)N([C@H](C)CO)C[C@@H]2C)cc1,-3.8,-8.9,0.6
C[C@H]1CN([C@@H](C)CO)S(=O)(=O)c2ccc(C#CC(C)(C)O)cc2O[C@H]1CN(C)Cc1ccncc1,2.4,0.4,-1.5
COc1ccccc1-c1cn(CC[C@H]2CC[C@@H](NC(=O)C3CCCCC3)[C@@H](CO)O2)nn1,-3.9,-2.3,0.5
C[C@@H]1CN([C@@H](C)CO)C(=O)Cc2cc(NS(=O)(=O)c3cccs3)ccc2O[C@H]1CN(C)S(=O)(=O)c1ccc(Cl)cc1,1.7,-4.6,2.0
CN(C)C(=O)c1ccc(-c2cccc(-c3nc(C(=O)N(C)C)cc4c3[C@H](CCO)N([S@@](=O)C(C)(C)C)C4)c2)cc1,2.3,6.9,6.5
C[C@@H]1CN([C@@H](C)CO)C(=O)c2cc(C#CC(C)(C)O)cnc2O[C@@H]1CN(C)Cc1cccc(F)c1,1.0,-5.3,-1.7
CCCC(=O)Nc1ccc2c(c1)C(=O)N(C)C[C@@H](OC)[C@@H](C)CN(C(=O)CN(C)C)[C@@H](C)CO2,1.4,-1.0,0.2
CN1c2ccc(C#Cc3cccc(F)c3)cc2[C@H]2[C@H](CCN2S(=O)(=O)c2ccccc2F)[C@@H]1CO,5.0,25.9,-1.0
CN(C)CCCNC(=O)C[C@@H]1C=C[C@H](NS(=O)(=O)c2ccccc2)[C@H](CO)O1,0.0,12.8,-0.4

# Ordered by value in rRNA inh HTS (descending): 7 from the list above
SMILES	rRNA inh HTS	rRNA inh HTS OD600	rRNA inh HTS RFP
CN(C)C(=O)c1ccc(-c2cccc(-c3nc(C(=O)N(C)C)cc4c3[C@H](CCO)N([S@@](=O)C(C)(C)C)C4)c2)cc1	2.3	6.9	6.5
COc1ccc(CN(C)C[C@H]2Oc3ccc(NC(=O)Nc4ccccc4)cc3C(=O)N([C@H](C)CO)C[C@@H]2C)cc1	1.3	0.0	-1.9
C[C@@H]1CN([C@@H](C)CO)C(=O)c2cc(NC(=O)Cn3cnnn3)ccc2O[C@H]1CN(C)Cc1ccc(Oc2ccccc2)cc1	-1.2	-9.3	3.3
CCCNC(=O)N1CCC2(CC1)CN(C(=O)NC(C)C)[C@H](CO)c1c2c2ccc(OC)cc2n1C	-1.9	-8.8	-3.0
Cc1ccc(S(=O)(=O)N(C)C[C@@H]2Oc3c(NS(=O)(=O)c4ccccc4)cccc3C(=O)N([C@H](C)CO)C[C@@H]2C)cc1	-3.8	-8.9	0.6
COc1ccc(NC(=O)Nc2ccc3c(c2)C(=O)N([C@@H](C)CO)C[C@H](C)[C@@H](CN(C)Cc2ccc(-c4ccccc4)cc2)O3)cc1	-5.4	-1.7	5.5
O=C(NCCOc1ccc(F)cc1)C1CCC(=O)N(Cc2ccc(Cl)cc2)C1 (stereo unspecified)	-6.3	-35.5	-4.7

# 4 of these compounds, reformatted.
structure | rRNA inh HTS | rRNA inh HTS OD600 | rRNA inh HTS RFP
Cc1ccc(S(=O)(=O)N(C)C[C@@H]2Oc3c(NS(=O)(=O)c4ccccc4)cccc3C(=O)N([C@H](C)CO)C[C@@H]2C)cc1 | -3.8 | -8.9 | 0.6
C[C@H]1CN([C@@H](C)CO)S(=O)(=O)c2ccc(C#CC(C)(C)O)cc2O[C@H]1CN(C)Cc1ccncc1 | 2.4 | 0.4 | -1.5
COc1ccccc1-c1cn(CC[C@H]2CC[C@@H](NC(=O)C3CCCCC3)[C@@H](CO)O2)nn1 | -3.9 | -2.3 | 0.5
C[C@@H]1CN([C@@H](C)CO)C(=O)Cc2cc(NS(=O)(=O)c3cccs3)ccc2O[C@H]1CN(C)S(=O)(=O)c1ccc(Cl)cc1 | 1.7 | -4.6 | 2.0

# The list goes on:
SMILES,rRNA inh HTS,rRNA inh HTS OD600,rRNA inh HTS RFP
CCNC(=O)C1(C)CCCN(C(=O)c2nc3ccccc3s2)C1 (stereo unspecified),4.0,9.8,-4.2
O=C(C[C@H]1CC[C@H]2[C@@H](COC[C@H](O)CN2Cc2cc(F)ccc2F)O1)NCc1ccccc1,-0.4,6.0,-4.7
CNC[C@H]1OCCCC[C@@H](C)Oc2ccc(NS(=O)(=O)c3ccccc3)cc2C(=O)N([C@H](C)CO)C[C@H]1C,-1.1,7.6,-1.4
Cc1cccc(-c2ccc([C@H]3[C@H](CO)N4CCCCN(S(=O)(=O)c5ccccc5C)C[C@@H]34)cc2)c1,-38.6*,-16.9*,2.9*
N#Cc1ccc(-c2ccc3c(c2)[C@@H]2[C@@H](CCN2C(=O)CN2CCOCC2)[C@H](CO)N3)cc1,1.0,5.8,-4.6
COc1cc(CN2C[C@@H](CO)O[C@@H](n3cnc4c(NCC(C)C)ncnc43)C2)cc(OC)c1OC,10.7,13.2,5.3
COc1ccc(OC)c(N2C(=O)c3ccccc3C2c2nnnn2-c2ccc3c(c2)OCCO3)c1 (stereo unspecified),-5.4,3.0,-1.2
C[C@H](CO)N1C[C@H](C)[C@@H](CN(C)Cc2ccncc2)Oc2c(NS(C)(=O)=O)cccc2C1=O,1.4,3.5,-0.6
Cc1ccc(S(=O)(=O)N(C)C[C@@H]2OCCCC[C@H](C)Oc3ccc(NS(=O)(=O)c4cn(C)cn4)cc3C(=O)N([C@@H](C)CO)C[C@@H]2C)cc1,-1.3,-1.7,2.4
C[C@@H]1CN([C@@H](C)CO)C(=O)Cc2cc(NC(=O)CCN3CCOCC3)ccc2O[C@H]1CN(C)C(=O)Nc1ccc(C(F)(F)F)cc1,-4.8,-3.9,0.9
O=C(O)[C@@H]1[C@@H](CO)[C@@H]2Cn3c(ccc(-c4cncnc4)c3=O)[C@@H]2N1C(=O)C1CCCC1,4.1,10.1,-1.5
O=C(C1CCOCC1)N1CC[C@H]2[C@H](CO)Nc3ccc(-c4ccc(F)cc4)cc3[C@H]21,-2.8,6.0,-2.2
CC(C)C1C(=O)N(Cc2cn(Cc3ccco3)nn2)CCS(=O)(=O)N1Cc1ccc(-c2ccccc2)cc1 (stereo unspecified),11.4,-6.0,3.1
COc1ccccc1NC(=O)N1C[C@H](O)COC[C@@H]2O[C@H](CC(=O)N3CCC(Cc4ccccc4)CC3)CC[C@H]21,-24.6,-47.2,5.1
Cc1ccc(S(=O)(=O)N[C@H]2C=C[C@@H](CC(=O)NCc3ccncn3)O[C@H]2CO)cc1,1.6,3.5,-1.2
C[C@@H]1CN([C@@H](C)CO)C(=O)c2cc(/C=C/c3ccccc3)cnc2O[C@H]1CN(C)C(=O)C1CCC1,-3.7,-20.1,12.9
OCC[C@@H]1C[C@H](O)[C@@H](O)[C@]2(OCCc3cc(Cl)ccc32)O1,15.1,11.3,3.0
CCCCCC(=O)N1C[C@@H](O)[C@H](n2cc(COC(=O)c3ccccc3)nn2)C[C@@H]1c1ccc(Cl)cc1,-10.7,-12.4,3.2
COc1ccc(S(=O)(=O)Nc2ccc3c(c2)OC[C@H](C)NC[C@H](C)[C@@H](OC)CN(C)C3=O)cc1,1.0,10.9,2.1
CC=Cc1ccc2n(c1=O)C[C@@H]1[C@@H](CO)[C@H](C(=O)NCc3ccncc3)N(Cc3ccncc3)[C@H]21 (mixture of isomers),9.8,-11.1,5.0
CNC[C@H]1OCCCC[C@@H](C)Oc2ccc(NS(C)(=O)=O)cc2C(=O)N([C@H](C)CO)C[C@H]1C,5.4,15.1,-0.5
Cc1ccc(S(=O)(=O)N(C)C[C@@H]2Oc3ccc(NS(=O)(=O)c4c(C)noc4C)cc3CC(=O)N([C@@H](C)CO)C[C@@H]2C)cc1,0.6,-4.7,0.8
CC(C)CC#Cc1ccc2c(c1)O[C@H](CN(C)C(=O)Cc1ccccn1)[C@H](C)CN([C@H](C)CO)S2(=O)=O,-1.6,-14.8,7.1

# A stretch taken from the entries so far:
SMILES,rRNA inh HTS,rRNA inh HTS OD600,rRNA inh HTS RFP
Cc1ccc(S(=O)(=O)N(C)C[C@@H]2Oc3ccc(NS(=O)(=O)c4c(C)noc4C)cc3CC(=O)N([C@@H](C)CO)C[C@@H]2C)cc1,0.6,-4.7,0.8
CC(C)CC#Cc1ccc2c(c1)O[C@H](CN(C)C(=O)Cc1ccccn1)[C@H](C)CN([C@H](C)CO)S2(=O)=O,-1.6,-14.8,7.1
